Bioassay records: PubChem BioAssay, National Center for Advancing Translational Sciences (NCATS)
GLS inh – qHTS for Inhibitors of Glutaminase (GLS); Glutaminase kidney isoform, mitochondrial (Homo sapiens), O94925; GLS enzymatic activity, qHTS titration; Potency, µM (top dose mostly 45.5 µM), for inactives: top-dose activity change, negative = inhibition, usual class: inhibitors; hit rate 0.21% among 410,000; AID 624170, 2012; further: potency means the concentration at half of the fitted maximal effect; on the % scale 0 is the no-effect control and ±100 the full control effect
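Human kidney-isoform GLS in 45 mM KH2PO4 pH 8.2, 0.02% Tween-20, with compound, started with 1mM L-Glutamine (added stock). Glutamate oxidase/HRP/Amplex red coupled fluorescence read at start and after 30 min at RT.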
ALOX12 inh – Primary qHTS assay for inhibitors of human arachidonate 12S-lipoxygenase (ALOX12): Round 2. purified 12hLO, xylenol orange hydroperoxide absorbance. Potency, µM (doses to about 108 µM), inactives show at the highest dose activity change, negative = inhibition, hits mostly inhibitors. AID 1671190, 2021. Polyunsaturated fatty acid lipoxygenase ALOX12 (Homo sapiens), P18054. hit rate 1.1% among 580,000; further: potency means the concentration at half of the fitted maximal effect; on the % scale 0 is the no-effect control and ±100 the full control effect
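Hydroperoxide product was detected by ferrous iron/xylenol orange as the 573 to 405 nm absorbance ratio. Arachidonic acid at 40 uM (final) was turned over for 30 min at room temperature by 150 nM human 12hLO, pH 7.0 Hepes buffer, after 15 min compound preincubation.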
PI4K2A block – qHTS for small molecular inhibitors of PI4K2A; AID 1346378, 2018; hit rate 0.13% among 420,000; activity change, negative = inhibition, % at 76.9 µM; Phosphatidylinositol 4-kinase type 2-alpha (Homo sapiens), Q9BTU6; purified PI4K2A, ADP-Glo luminescence, 1 h; hits give low values; in the data active means activity change below about -50%; inconclusive means mostly about -30% to -49%;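 further: -100% = wells without enzyme as full effect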
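ADP-Glo luminescence measured ADP generated by PI4K2A enzyme (4 ug/mL before mixing) with 1.2 mM PI substrate (pre-mix) and 300 microM ATP (pre-mix). Tris pH7.5 buffer with MgCl2, Triton X-100; 1 h reaction at ambient temperature.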
RGS4 inh – Inhibitors of Regulator of G Protein Signaling (RGS) 4: qHTS; Regulator of G-protein signaling 4 (Homo sapiens), P49798; Potency, µM (series often up to 114 µM), for inactives: at the top dose activity change, negative = inhibition, usual class: inhibitors; AID 504845, 2011; Transcreener GDP fluorescence polarization, RGS4-accelerated GTP hydrolysis; hit rate 0.039% among 390,000; further: potency means the concentration at half of the fitted maximal effect; on the % scale 0 is the no-effect control and ±100 the full control effect; nearly all actives have a fitted effect of over 75% in size; some results filed as inactive show a strong effect at the top dose
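MLSMR compounds (23 nl, pin-transferred) preincubated 10 min at room temperature with a 500nM (2x) first reagent, then RGS4 at 900nM (2x) plus Transcreener GDP mix added; fluorescence polarization (620/688 nm) read before and after 90 min at 30 °C.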
ERG Ets-DNA blk – qHTS for Small Molecule Inhibitors of the ERG Ets/DNA interaction | hit rate 0.028% among 370,000 | AID 624246, 2012 | Potency, µM (series often up to 76.9 µM), without a hit: top-dose FP activity, negative = inhibition, actives largely listed as inhibitors | fluorescence polarization, His-ERG Ets domain / labelled DNA; active means well fitted inhibition curve with a large enough effect in the polarisation, with a control signal flat; inconclusive means small, poorly fitted or top-dose-only effect, or effect the other way, or a change in a side signal; inactive means no such curve, though single readings can be large or run the other way; the % refers to the polarisation;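 further: polarization taken with two DNA probes labelled with fluorescein and Texas red; potency means the concentration at half of the fitted maximal effect; % of control where 0% means no effect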
Target sequence (P11308 whole entry, looked up, the tested form may be a part): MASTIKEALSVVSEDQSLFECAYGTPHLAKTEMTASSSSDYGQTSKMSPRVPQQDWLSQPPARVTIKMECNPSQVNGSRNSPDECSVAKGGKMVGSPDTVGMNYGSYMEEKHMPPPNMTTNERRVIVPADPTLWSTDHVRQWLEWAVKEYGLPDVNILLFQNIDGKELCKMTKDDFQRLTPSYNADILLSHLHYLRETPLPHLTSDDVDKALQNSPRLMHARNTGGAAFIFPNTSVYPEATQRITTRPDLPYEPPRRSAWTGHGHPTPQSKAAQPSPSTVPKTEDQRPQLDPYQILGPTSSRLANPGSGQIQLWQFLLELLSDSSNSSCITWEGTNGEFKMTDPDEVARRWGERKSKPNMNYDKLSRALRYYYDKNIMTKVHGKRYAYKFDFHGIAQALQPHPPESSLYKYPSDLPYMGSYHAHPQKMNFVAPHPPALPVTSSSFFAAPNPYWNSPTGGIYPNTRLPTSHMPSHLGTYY
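His-tagged ERG Ets domain (1 uM in the protein solution; 300mM KCl, 50mM Tris-HCl, 1mM EDTA, 1mM DTT, pH 7.5) received compound, then a probe mix of 5 nM fluorescein-DNA and 100nM Texas-615-DNA. Fluorescence polarization was read for both dyes.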
G9a block – qHTS Assay for Inhibitors of Histone Lysine Methyltransferase G9a. Potency, µM (titrated, usually from 102 µM), inactives show at the highest dose activity, negative = inhibition, most hits filed as inhibitors. G9a H3K9 monomethylation, AlphaScreen, 2 h. Histone-lysine N-methyltransferase EHMT2 (Homo sapiens), Q96KQ7. AID 504332, 2011. hit rate 8.8% among 350,000; further: potency means the concentration at half of the fitted maximal effect; on the % scale 0 is the no-effect control and ±100 the full control effect; nearly all actives have a fitted effect of over 75% in size
Target sequence (Q96KQ7 913-1193 limits assumed): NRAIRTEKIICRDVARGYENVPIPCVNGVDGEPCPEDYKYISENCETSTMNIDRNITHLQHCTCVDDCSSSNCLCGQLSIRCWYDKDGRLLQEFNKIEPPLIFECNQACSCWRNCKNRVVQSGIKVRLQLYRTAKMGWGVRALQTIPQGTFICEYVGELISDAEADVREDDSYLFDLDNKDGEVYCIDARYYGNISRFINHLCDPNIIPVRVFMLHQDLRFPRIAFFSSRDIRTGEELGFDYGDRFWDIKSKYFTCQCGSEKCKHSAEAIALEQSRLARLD
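G9a (20 nM) was preincubated 15 min with compound, then reacted 2 h at room temperature with 500 nM biotin-H3K9 peptide and 20 µM SAM. Monomethyl-H3K9 detected by AlphaScreen using anti-H3K9me1 antibody.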
HP1b chromo inh – HTS for Inhibitors of HP1-beta Chromodomain Interactions with Methylated Histone Tails; Potency, µM (top dose mostly 114 µM), inactives show at the top dose activity change, negative = inhibition, usual class: inhibitors; hit rate 0.56% among 390,000; Chromobox protein homolog 1 (Homo sapiens), P83916; AID 540317, 2011; AlphaScreen HP1-beta / biotin-H3K9me3 peptide binding; further: potency means the concentration at half of the fitted maximal effect; nearly all actives have a fitted effect of over 70% in size; inactives centre near 23
Target sequence (P83916 whole entry, looked up): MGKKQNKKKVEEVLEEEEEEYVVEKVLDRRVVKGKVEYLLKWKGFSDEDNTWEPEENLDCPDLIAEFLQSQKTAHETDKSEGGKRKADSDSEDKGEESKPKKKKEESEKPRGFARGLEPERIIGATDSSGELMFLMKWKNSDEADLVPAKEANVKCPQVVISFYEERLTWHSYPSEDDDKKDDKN
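HP1-beta protein (50 nM final) preincubated 30 min at room temperature with biotinylated H3(1-18)K9me3 peptide (50 nM) in PBS pH 7.4, 0.01% Tween-20, then compound added for 30 min. AlphaScreen streptavidin donor/nickel chelate acceptor beads (10 ug/mL final), 30 min dark, luminescence read.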
JMJD2A Tudor inh – qHTS Assay for Inhibitors of JMJD2A-Tudor Domain | AlphaScreen JMJD2A-Tudor / H3K4me3 peptide binding | Potency, µM (highest dose often 114 µM), for the others: top-dose activity change, negative = inhibition, hits mostly inhibitors | Lysine-specific demethylase 4A (Homo sapiens), O75164 | AID 504339, 2011 | hit rate 4.4% among 390,000; further: potency means the concentration at half of the fitted maximal effect; on the % scale 0 is the no-effect control and ±100 the full control effect; nearly all actives have a fitted effect of over 50% in size
* marks the source's active call; other numbers are inactive results; ? = inconclusive; / = not tested or not shown; [ ] = another dose, or the depositor's remark. Unless noted, the call rests on the fitted dose curve; in most records, active means well fitted curve in the direction sought with a large enough effect; inconclusive means small, poorly fitted or top-dose-only effect, or another doubt; inactive means no such curve, though single readings can be large; an effect the other way counts as inactive or inconclusive. The list is partial; the hit share may differ from the screen's.

no. | structure | GLS inh | ALOX12 inh | PI4K2A block | RGS4 inh
1 | CCN1C(=O)/C(=C/c2cc(C)n(C)c2C)SC1=Nc1ccc(OC)cc1 | -3.9% | 0.0% | -0.9 | -42.3%
2 | CCCCNc1nc(N(C)c2ccccc2)nc(-n2ccnc2)n1 | 2.0% | -20.4% | -2.8 | 13.5%
3 | Cn1cccc1Cc1nnc(SCC(=O)Nc2ccc3c(c2)OCCO3)n1CCc1ccccc1 | 0.3% | 309.9%[activator] | -0.1 | 5.2%
4 | COc1ccc(C(=O)NC(=S)NC(C)(C)C)cc1Br | -3.9% | 8.91µM* | 4.5 | ?
5 | CCOC(=O)N1CCN(Cc2nc(N)nc(Nc3ccc(C)cc3)n2)CC1 | -0.2% | -24.1% | 4.2 | -27.5%
6 | Cc1ccc(-c2nc(N3CCN(C)CC3)c3ccccc3n2)cc1 | 3.4% | -33.7% | -0.3 | -0.5%
7 | COC(=O)c1ccc(-c2ccco2)n1Cc1cccc(C)c1 | ? | ? | 3.8 | -15.8%
8 | CC1CCN(S(=O)(=O)c2nnc(NC(=O)c3cccc(Br)c3)s2)CC1 | 1.8% | -18.8% | 1.6 | 13.1%

no. | ERG Ets-DNA blk | G9a block | HP1b chromo inh | JMJD2A Tudor inh
1 | 4.4% | 10.5%[12.7 µM] | ? | ?
2 | -6.3% | -11.8%[59 µM] | 17.8% | 4.8%
3 | -3.6% | 44.7µM* | -9.2% | ?
4 | -0.5% | ? | -31.8% | ?
5 | 4.0% | -23.8%[2.33 µM] | 20.9% | ?
6 | -1.6% | ? | 7.8% | -28.2%
7 | 14.1% | ? | ? | ?
8 | 4.1% | ? | -0.5% | -28.9%

Going on with the list.
no. | structure | GLS inh | ALOX12 inh | PI4K2A block | RGS4 inh
9 | CCOc1ccccc1NC(=O)CSc1nccn1-c1ccc(Cl)cc1 | 6.4% | 6.3% | 0.9 | -16.3%
10 | COc1ccc(CCCC(=O)NCc2ccccc2)cc1C | 2.6% | -1.3% | 7.9 | 3.4%
11 | CC(C)c1ccc(NC(=O)Cn2cc(S(=O)(=O)Cc3ccccc3Cl)c3ccccc32)cc1 | -15.3% | -28.0% | -1.9 | 13.7%
12 | O=C(NNS(=O)(=O)c1ccc([N+](=O)[O-])cc1)c1ccc2ccccc2c1O | -17.7% | -20.5% | -5.0 | -4.8%
13 | Cc1ccccc1NS(=O)(=O)c1ccc(C(=O)N2CCCC(C(F)(F)F)C2)cc1 (stereo not drawn) | 1.5% | -9.1% | -0.6 | 12.2%
14 | Cc1ccc(-c2nn(CC(=O)Nc3ccc4c(c3)nc3n4CCOC3)c(=O)c3ccccc23)cc1 | -13.6% | 0.0% | -9.5 | -21.8%
15 | CCc1ccc(N2CC(C(=O)Nc3nnc(CC)s3)CC2=O)cc1 (stereo not drawn) | -0.7% | 9.7% | 2.3 | -22.3%
16 | CCCn1c(NC(=S)Nc2ccccc2)nc2ccccc21 | 0.1% | 22.4µM* | 12.3 | -31.5%

no. | ERG Ets-DNA blk | G9a block | HP1b chromo inh | JMJD2A Tudor inh
9 | -1.9% | 12.6µM* | ? | ?
10 | 2.2% | 28.1%[59 µM] | 26.7% | -3.6%
11 | 6.7% | -1.7%[59 µM] | 11.4% | -21.8%
12 | 9.2% | 70.8µM* | 4.4% | -29.7%
13 | -1.2% | 4.8% | 24.8% | ?
14 | -6.1% | 79.4µM* | 28.0% | ?
15 | -3.8% | 8.3% | 33.3% | -4.5%
16 | -2.2% | 6.9% | -7.2% | ?

Fetched one by one from the list above (3):
no. | structure | GLS inh | ALOX12 inh | PI4K2A block | RGS4 inh
9 | CCOc1ccccc1NC(=O)CSc1nccn1-c1ccc(Cl)cc1 | 6.4% | 6.3% | 0.9 | -16.3%
10 | COc1ccc(CCCC(=O)NCc2ccccc2)cc1C | 2.6% | -1.3% | 7.9 | 3.4%
12 | O=C(NNS(=O)(=O)c1ccc([N+](=O)[O-])cc1)c1ccc2ccccc2c1O | -17.7% | -20.5% | -5.0 | -4.8%

no. | ERG Ets-DNA blk | G9a block | HP1b chromo inh | JMJD2A Tudor inh
9 | -1.9% | 12.6µM* | ? | ?
10 | 2.2% | 28.1%[59 µM] | 26.7% | -3.6%
12 | 9.2% | 70.8µM* | 4.4% | -29.7%

Going on with the list:
no. | structure | GLS inh | ALOX12 inh | PI4K2A block | RGS4 inh
17 | O=C(Nc1ccc(F)cc1)c1nc[nH]c1C(=O)Nc1ccc([N+](=O)[O-])cc1 | 0.8% | 0.8% | -3.7 | 0.9%
18 | COc1ccc2c(c1)C1=C(CC2)C(c2ccc(C)cc2)NC(=S)N1 (stereo not drawn) | -4.0% | 39.8µM* | -1.4 | -43.0%
19 | Clc1ccc(CO/N=C/c2c(-c3ccccc3)nc3n2CCS3)c(Cl)c1 | -3.5% | -2.4% | 4.5 | -16.7%
20 | CSc1nc(-c2ccc(Cl)cc2)nn1C(=O)c1ccco1 | 5.9% | 0.0% | 34.2 | -4.8%
21 | COc1cc(OC)c(C(=O)OCCCOC(=O)c2cc(OC)c(OC)cc2OC)cc1OC | -7.5% | 0.0% | -0.6 | -23.3%
22 | Cc1ccc(S(=O)(=O)N2CCC(C(=O)N[C@H](C(=O)NCC3CCCO3)C(C)C)CC2)cc1 (stereo partly drawn) | -2.7% | -4.6% | 1.8 | 10.0%
23 | O=C(CSc1nccn1-c1cccc(Cl)c1)Nc1ccc2c(c1)OCO2 | -0.7% | 2.2% | -2.2 | -0.6%
24 | CNc1nc(-c2ccc(OC)cc2)c(-c2ccc(OC)cc2)s1 | 6.8% | -6.6% | -5.2 | 27.1%

no. | ERG Ets-DNA blk | G9a block | HP1b chromo inh | JMJD2A Tudor inh
17 | -5.5% | 7.9%[59 µM] | 36.6% | -21.5%
18 | 8.3% | -1.9%[59 µM] | -18.5% | ?
19 | -0.4% | -10.7%[12.7 µM] | -17.6% | ?
20 | 0.5% | -29.1% | 27.2% | 6.3%
21 | -18.0% | / | 14.9% | 4.1%
22 | -11.7% | 38.3%[59 µM] | 29.7% | 2.2%
23 | 1.9% | 11.2µM* | -14.1%[57 µM] | ?
24 | 6.4% | ? | 14.2% | -25.4%

Single records (already shown):
Profile of O=C(Nc1ccc(F)cc1)c1nc[nH]c1C(=O)Nc1ccc([N+](=O)[O-])cc1 → GLS inh = 0.8%; ALOX12 inh = 0.8%; PI4K2A block = -3.7; RGS4 inh = 0.9%; ERG Ets-DNA blk = -5.5%; G9a block = 7.9%[59 µM]; HP1b chromo inh = 36.6%; JMJD2A Tudor inh = -21.5%
Profile of Cc1ccc(S(=O)(=O)N2CCC(C(=O)N[C@H](C(=O)NCC3CCCO3)C(C)C)CC2)cc1 (stereo partly drawn) → GLS inh = -2.7%; ALOX12 inh = -4.6%; PI4K2A block = 1.8; RGS4 inh = 10.0%; ERG Ets-DNA blk = -11.7%; G9a block = 38.3%[59 µM]; HP1b chromo inh = 29.7%; JMJD2A Tudor inh = 2.2%

(list continues)
no. | structure | GLS inh | ALOX12 inh | PI4K2A block | RGS4 inh
25 | Cc1ccc(-c2nn3c(C)nnc3c3ccccc23)cc1S(=O)(=O)NC(C)c1ccccc1 (stereo not drawn) | -4.0% | -0.4% | -17.0 | -19.7%
26 | COc1ccc(NC(=O)COC(=O)CC23CC4CC(CC(C4)C2)C3)c([N+](=O)[O-])c1 | -1.3% | 1.3% | -0.1 | 10.5%
27 | CN1CCN(C(=S)c2cn(CCOc3ccccc3)c3ccccc23)CC1 | -9.9% | -5.5% | 3.8 | 17.4%[56.9 µM]
28 | Cn1c(SCC(=O)NCc2ccco2)nnc1-c1c[nH]c2ccccc12 | 0.3% | 24.7% | -7.1 | -33.7%

no. | ERG Ets-DNA blk | G9a block | HP1b chromo inh | JMJD2A Tudor inh
25 | 38.0%[activator] | -3.6%[0.501 µM] | 5.3% | -17.3%
26 | 0.9% | ? | ? | ?
27 | -0.4% | 39.8µM* | 4.2% | ?
28 | 8.9% | ? | 49.2%[activator] | -19.0%
